High-throughput results: PubChem BioAssay, Broad Institute
Tgondii IFNg – T. gondii growth inhibition with IFN-gamma, primary screen, cell-based; Toxoplasma gondii growth in IFN-gamma-treated host cells; hits give low values; reference of the scale not given here; activity change, negative = inhibition, %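 (about 20 µM by stock and volumes)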; 69,000 tested, 3.8% active;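 active = below -70%; inconclusive = fit judged invalid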;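 note: host cells are HeLa cells infected with Toxoplasma gondii; parasite growth read as luciferase light; one replicate is shown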
Numbers without * were called inactive; i = inactive; ? = inconclusive; & = joins results of further samples. An excerpt. The share of hits here may be higher or lower than overall.

SMILES	Tgondii IFNg
O=C(Nc1cc(F)ccc1F)N[C@@H]1CC[C@@H](CCn2cc(C3CCCCC3)nn2)O[C@H]1CO	-40.1
Cc1cnccc1CN(C)C(=O)c1ccc(-c2ccccc2)[nH]1	-61.8
Cc1ccc(S(=O)(=O)Nc2cncc(C(=O)Nc3ccc(C)cc3Cl)c2)c(C)c1	1.1
O=C(CC1CC1)N1CC2(C1)[C@@H](c1ccccc1)[C@@H](CO)N2S(=O)(=O)Cc1ccccc1	-57.7
CC(=O)N1CCC2(CC1)OC(=O)C(C)=C2C(=O)NCCCN1CCCC1=O	-2.2
COCCNCc1cc2c(C)nn(-c3ccccc3)c2[nH]c1=O	-5.9
N#C[C@@H]1[C@H](c2ccc(-c3cccnc3)cc2)[C@H](CO)N1C(=O)C1CCOCC1	10.7
Cc1cc(C2CCCN2C(=O)c2ccc(Cn3nc(C)cc3C)cc2)on1 (stereo not drawn)	-1.6
Cc1cc(C(=O)N2CCc3ncnc(OC(C)C)c3CC2)no1	0.1
CC(CCNC(=O)C(C)n1c2ccccc2c2cnn(C)c(=O)c21)N1CCCC1 (stereo not drawn)	0.0
Cc1noc(C)c1S(=O)(=O)Nc1ccc2c(c1)C(=O)N([C@@H](C)CO)C[C@H](C)[C@H](CN(C)C(=O)NC1CCCCC1)O2	12.0
CN1C(=O)c2cc(NC(=O)C3CCOCC3)ccc2OC[C@H]2O[C@H](CC(=O)NCc3ccccc3F)CC[C@H]21	16.0
C[C@@H]1CN([C@H](C)CO)C(=O)CCCn2cc(nn2)CO[C@H]1CN(C)S(=O)(=O)c1ccc(-n2cccn2)cc1	?
COc1ccccc1NC(=O)Cn1ncc2c(N3CCN(c4ccccn4)CC3)ncnc21	-11.2
Cn1c(CNC(=O)C2CCC2)nc2c1CN(S(=O)(=O)c1ccc(F)cc1)CC2	-16.4
CCOC(=O)N1CSCC1C(=O)O (stereo not drawn)	-41.6
Cc1oc(-c2ccc(Cl)cc2)nc1CN1CCCC(C(=O)NC2CCCCCC2)C1 (stereo not drawn)	-99.0*
Cc1cccc2c(-c3ccncn3)c[nH]c12	39.0
Cc1cc(CNC(=O)Nc2c(C)noc2C)c(C(F)(F)F)o1	-46.1
Cc1nn(C)c(C)c1CCC(=O)N1CCC(Oc2ncccn2)CC1	-52.3
Cc1cnc(N2CCC3C2CCC(=O)N3Cc2csc(C)n2)nc1 (stereo not drawn)	-42.7
O=C(NC1CCCCC1)[C@H]1C=CCN1S(=O)(=O)c1ccc(F)cc1	-15.5
O=C(C[C@@H]1CC[C@@H]2[C@H](COC[C@H](O)CN2C(=O)Nc2cccc(F)c2)O1)NCCCN1CCOCC1	-61.6
CS(=O)(=O)c1ccc(CN2C[C@@H]3[C@H](C2)[C@H]2CC[C@@H]3O2)cc1	74.9
CCC(=O)Nc1ccsc1C(=O)OC	18.0
Cc1noc(C)c1NC(=O)Nc1ccc2c(c1)C(=O)N([C@H](C)CO)C[C@@H](C)[C@H](CN(C)S(=O)(=O)c1cccs1)OCCCC[C@@H](C)O2	90.3
CCOC(=O)c1cc2c(c(-c3cccc(C#CCN(C)C)c3)n1)[C@@H](CCO)N(S(=O)C(C)(C)C)C2 (stereo partly drawn)	-23.0
CCC(CC)C(=O)N1CCC[C@]2(C(=O)N3CCOCC3)CN(Cc3cnn(C)c3)C[C@H]2C1	3.3
CCCn1cc(C(=O)N(Cc2ccncc2)C(C)CC)c(C)n1 (stereo not drawn)	5.0
COc1ccc(-c2nc(C)c(CCNS(=O)(=O)c3ccccc3F)s2)cc1	211.9

Compounds listed so far containing a Cl atom:
SMILES	Tgondii IFNg
Cc1ccc(S(=O)(=O)Nc2cncc(C(=O)Nc3ccc(C)cc3Cl)c2)c(C)c1	1.1
Cc1oc(-c2ccc(Cl)cc2)nc1CN1CCCC(C(=O)NC2CCCCCC2)C1 (stereo not drawn)	-99.0*

(listing goes on)
SMILES	Tgondii IFNg
CCOC(=O)c1c(N)sc2c1-c1ccccc1C2	64.6
COc1ccc(-n2cccn2)c(CN(C)C(C)C(=O)N(C)C)c1 (stereo not drawn)	9.1
CCCC(=O)N1CC[C@@H]2Oc3ccccc3S(=O)(=O)N(CC)[C@@H]2CC1	3.9
O=C(Nc1ccc(F)cc1)c1cccnc1Oc1ccccc1	-31.2
CCCc1nc(CN(C)C(=O)C2(Nc3ccc(C)cc3)CCCC2)no1	4.8
Cc1cc(C)c(N)c(-c2cc(C)[nH]n2)c1	-14.9
Cc1noc(C)c1NC(=O)N[C@H]1C=C[C@@H](CC(=O)Nc2ccc(-c3ccccc3)cc2)O[C@@H]1CO	-18.9
COc1ccccc1C1(O)CCN(Cc2cn(CC(=O)NC(C)C)c3ccccc23)CC1	2.6
CN[C@@H](C)C(=O)N[C@H](C(=O)N1CCC[C@H]1c1nc(C(=O)c2ccc(F)cc2)cs1)C1CCCCC1	-33.8
CCS(=O)(=O)N1CC[C@H]2[C@H](CC1)S(=O)(=O)CCN2C(=O)c1ccccc1	-37.9
CCOc1ccccc1-c1nc(CN(c2ccccc2OC)S(=O)(=O)c2ccc(C)cc2)c(C)o1	-38.5
CCOC(=O)c1nc(-c2cccc(-n3cccc3)c2)no1	-17.8
CO[C@@H]1CN(C)C(=O)c2cc(NC(=O)Nc3cc(F)ccc3F)ccc2OC[C@@H](C)NC[C@H]1C	44.6
Cc1nnsc1CN(C)c1nc(CCN)nc2ccccc12	-8.5
CO[C@H]1[C@H](NC(=O)c2ccccn2)c2ccccc2C12CCN(C(=O)CSc1ccccc1)CC2	11.6

Two of the compounds above, with each value named.
CN[C@@H](C)C(=O)N[C@H](C(=O)N1CCC[C@H]1c1nc(C(=O)c2ccc(F)cc2)cs1)C1CCCCC1
  Tgondii IFNg = -33.8
CCS(=O)(=O)N1CC[C@H]2[C@H](CC1)S(=O)(=O)CCN2C(=O)c1ccccc1
  Tgondii IFNg = -37.9

(next part)
SMILES	Tgondii IFNg
O=C(NC(=O)c1cccc(=O)o1)Oc1ccccc1	3.5
O=C(CN1CCOCC1)N[C@@H]1CC[C@H](CCn2cc(C3CC3)nn2)O[C@H]1CO	-24.5
CC(C)NC(=O)N(C)C[C@H]1Oc2ccc(NC(=O)c3ccncc3)cc2C(=O)N([C@@H](C)CO)C[C@H]1C	8.0
Cc1c(Cl)cccc1NC(=S)N1CCCN(Cc2ccc(F)cc2)CC1	-10.0
O=C(CCc1ccccc1)N1CCCC2(C1)Nc1cccnc1NC2=NC1CCCC1 (stereo not drawn)	52.6
CCCC#Cc1cnc2c(c1)C(=O)N([C@H](C)CO)C[C@H](C)[C@@H](CN(C)C(=O)Nc1cc(F)ccc1F)O2	53.1
COc1cc(C(=O)O)cc(Br)c1OC	20.3
Cc1ccc(CN2CC[C@@]3(C[C@H](NC(=O)c4ccco4)CCO3)C2)cc1	23.4
CCOC(=O)N1CCC(N2CCC3(CCNC(=O)CC3)CC2)CC1	-1.4
CCc1nnc(CN(C)c2ncc(C)c(N(C)C)n2)o1	0.4
COc1ccc2[nH]cc(CCN3CC(C(=O)Nc4cc(C)cc(C)c4)CC3=O)c2c1 (stereo not drawn)	312.2
COc1ccc(NC(=O)c2nnn(Cc3nc(-c4ccc(OC(C)C)cc4)oc3C)c2C)c(OC)c1	-37.7
O=S(=O)(c1ccc(-c2ccno2)o1)N1CCC2(CCNCC2)C1	-1.1
CC(=O)N1CCS(=O)(=O)[C@@H]2CCN(S(=O)(=O)c3ccccc3C)CC[C@@H]21	2.9
CN(C)C(=O)N1CCC(c2nc3ccc(N4CCOCC4)cn3n2)CC1	-9.5
COc1cccc(CN2CCC3(CC(NC(=O)c4cnn(C)c4)C3)C2)n1 (stereo not drawn)	17.6
CCOC(=O)c1c(C)noc1-c1ccc(Br)o1	27.7
CCN(Cc1ccncc1)C(=O)CC(=O)Nc1cc(C)cc(C)c1	-5.6
COC(C)c1nncn1-c1cccc2ccccc12 (stereo not drawn)	-48.2
Cc1cc(C)c(S(=O)(=O)N2CCC3(CC2)Nc2cc(F)ccc2-n2cccc23)cc1C	-41.8
Cc1nnsc1CNC(=O)CC1COc2ccc(C(=O)N(C)C)cc2N1C (stereo not drawn)	-0.5
CC(=O)Nc1cccc(NC(=O)C(=O)NCCc2csc(-c3ccc(C(F)(F)F)cc3)n2)c1	205.0
CCCC(=O)Nc1ccc2c(c1)C(=O)N(C)C[C@@H](OC)[C@@H](C)CN(Cc1ccc(F)cc1)[C@H](C)CO2	73.9
O=C(NCCSc1nc2ccccc2o1)[C@@H]1C[C@@H]2C=C[C@H]1C2	-32.9
CNC(=O)C[C@@H]1CC[C@H]2[C@H](COc3ccc(NC(=O)c4ccccc4F)cc3C(=O)N2C)O1	5.0
Cc1ccc(C(=O)CNc2cccc3ccccc23)cc1	-7.2
Cc1c(C(=O)N2CCOCC2)sc2nc3n(c(=O)c12)CCN(Cc1ccccc1)CC3	-32.7
O=S(=O)(NCCc1c[nH]c2ccccc12)c1ccc(Cl)c(Cl)c1	31.3
CCCC(C(=O)N1CCCn2cncc2C1)n1cccc1 (stereo not drawn)	-7.8
COc1ccccc1-c1noc(-c2c(O)c3cc(F)ccc3n(C)c2=O)n1	-29.1

3 compounds drawn at random from those above:
SMILES	Tgondii IFNg
CNC(=O)C[C@@H]1CC[C@H]2[C@H](COc3ccc(NC(=O)c4ccccc4F)cc3C(=O)N2C)O1	5.0
COc1ccccc1-c1noc(-c2c(O)c3cc(F)ccc3n(C)c2=O)n1	-29.1
Cc1nnsc1CNC(=O)CC1COc2ccc(C(=O)N(C)C)cc2N1C (stereo not drawn)	-0.5

More records:
SMILES	Tgondii IFNg
Nc1ncc(C(=O)N2CCC3(CCCO3)CC2)c(-c2ccccc2)n1	-3.4
CCN(CC)C(=O)c1ccc(-n2cnc(-c3ccccc3)c2)o1	229.9
Cc1ccc2c(c1)C(=O)NC1(CCN(C(=O)Cc3ccc(Cl)cc3)CC1)N2C	-23.7
COc1ccc(S(=O)(=O)N(C)C[C@@H]2Oc3ccc(N(C)C)cc3CC(=O)N([C@H](C)CO)C[C@@H]2C)cc1	1.2
CCS(=O)(=O)N1[C@H](C#N)[C@@H](c2ccc(C#Cc3ccccc3F)cc2)[C@H]1CO	37.0
CC1=C/C(=N\N=C2\NC(=O)C(CC(=O)Nc3ccccc3F)S2)CC(C)(C)C1 (stereo not drawn)	64.0
Cc1ccc(C(=O)N2CCC(c3nnc(-c4cnc(C)cn4)o3)CC2)cc1	-0.1
O=c1cc(O)c2sc3nc4c(c(C(F)(F)F)c3c2[nH]1)CCCCC4	13.4
COc1ccc(NC(=O)N(C)C[C@@H]2Oc3ccc(NC(=O)Nc4cccc5ccccc45)cc3CC(=O)N([C@H](C)CO)C[C@H]2C)cc1	-4.7
CCOc1ccc2oc(C)c(C(=O)N3CCC4(CC3)CNC(=O)C4)c2c1	4.8
Cc1ccc(NC(=O)N2CCC(c3nc(C(=O)N4CCCC4)c(C)o3)CC2)cc1	-41.1
Cc1ccccc1N1CCN(C(=O)c2csc(C(=O)NC3CC3)n2)CC1	12.7
Cn1cc(-c2ccc(C(=O)N3CCCC(c4ccccc4)CC3)cn2)cn1 (stereo not drawn)	-9.3
O=C1CCc2cc(NC(=O)c3ccc(OC(F)(F)F)cc3)ccc2N1	-4.2
Cc1ccc(S(=O)(=O)N2CCC3(CC2)NCCN=C3NC2CCCCCC2)cc1C	15.6
CCOC(=O)CC1CCCCN1Cc1nnc(-c2ccco2)o1 (stereo not drawn)	10.2
OCCNCCCOc1cccc(Cl)c1Cl	12.5&-33.0
CCc1cn([C@H]2C[C@H](O)[C@@H](CO)O2)c(=O)[nH]c1=O	-6.6&19.6
Cn1c(CC2CCNCC2)nnc1SCc1cc(F)ccc1Cl	2.9
CCc1ccc(C(C(=O)NC2CCCC2)N(Cc2ccccc2)C(=O)c2ccco2)cc1 (stereo not drawn)	-40.2
O=C(Nc1ccccc1Cl)c1nc(Nc2ccccc2)c2ccccc2n1	-43.0
Cc1cc(NC(=O)NCC(c2cccnc2)c2cn(C)c3ccccc23)ccc1Br (stereo not drawn)	i
O=C1N(Cc2cccnc2)C(=O)C2(CCN(Cc3cc4ccccc4o3)CC2)N1CCc1ccccc1	-85.9*
N#CC(Cc1cccnc1)C(=O)Nc1ccccc1 (stereo not drawn)	44.0
CN1C(=O)c2cc(NS(=O)(=O)c3cccc(F)c3)ccc2OC[C@H]2O[C@@H](CC(=O)N3CCc4ccccc4C3)CC[C@H]21	-14.6
Cc1cc(C)n(-c2nc3ccccc3s2)n1	416.6
CCCOc1ccc(-c2noc(-c3c(O)c4ccc(F)cc4[nH]c3=O)n2)cc1	-38.6
CC(=O)c1c(-c2ccc(Cl)cc2Cl)noc1C	-24.3
CCS(=O)(=O)N[C@H]1C=C[C@@H](CC(=O)O)O[C@@H]1CO	-4.7
CCC(C)NC(=O)C1CC(c2ccccc2Cl)=NO1 (stereo not drawn)	36.4

As a working copy, 2 of the compounds above:
SMILES	Tgondii IFNg
CCS(=O)(=O)N[C@H]1C=C[C@@H](CC(=O)O)O[C@@H]1CO	-4.7
CCC(C)NC(=O)C1CC(c2ccccc2Cl)=NO1 (stereo not drawn)	36.4

Next section
SMILES	Tgondii IFNg
Cc1nn(CCC(=O)N2C3CCC2Cn2c(nc4ccccc4c2=O)C3)c(C)c1C (stereo not drawn)	1.1
COc1cccc(NC(=O)N2CCC(c3nc(C(=O)N4CCCCC4)c(C)o3)CC2)c1	178.0
COc1ccccc1NC(=O)Nc1ccc(-c2nc(-c3cccc(Br)c3)co2)cc1	-64.7
CCc1nc([C@H]2CN(C)C[C@@H]2C(=O)N2CCC(O)CC2)c(C)[nH]1	1.9
C[C@@H](NC(=O)[C@H]1[C@H](CO)[C@H]2Cn3c(cccc3=O)[C@H]2N1CCC(F)(F)F)c1ccccc1	2.7
CC(C)COC1CC2(CCN(Cc3nccn3C)CC2)C1	-9.8
CCCn1c(SCc2nc3ccccc3[nH]2)nc2ccccc21	-47.0
Cc1ccc(C(=O)N2CCc3ccc(=O)n(CC4CC4)c3CC2)o1	9.7
Cc1ccc2c(c1C)-n1cccc1C1(CCN(S(=O)(=O)c3cccc(Cl)c3)CC1)N2	22.6
CCO[C@@H]1CO[C@@]2(CCCN(C(=O)c3ccncn3)C2)C1	-12.6
O=C(O)c1ccccc1-c1c2cc(I)c(=O)c(I)c-2oc2c(I)c(O)c(I)cc12	-24.6&-5.8
O=C(Cc1ccccc1)N1C[C@@H]2[C@H](c3ccccc31)[C@@H](CO)N2S(=O)(=O)c1ccccc1	-4.2
CS(=O)(=O)NCc1cnc2n1CCN(c1ncccn1)CC2	-1.7
